Bioassay records: PubChem, ICCB-Longwood Screening Facility, Harvard Medical School
HCMV UL50-53 inh: inhibitors of HCMV UL50-UL53 nuclear egress complex interaction | HTRF UL50-UL53 interaction, normalized percent inhibition | inhibition, % (no concentration beside the values) | 0.15% of 190,000 active | AID 1918969;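 active means both replicates at 50% or more, plus weaker picks with an unusually low signal ratio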;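 further: stock transfer was 100 nL into about 20 µL; 0% = negative control wells and 100% = wells with untagged competitor protein; inactives centre near -12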
GIV Gai3 FP: blocks GIV peptide binding to rat Galpha-i3; Galpha-i3/FITC-GIV peptide fluorescence polarization, 90 min; active compounds read low; scaled: aluminum fluoride 0%, vehicle 100%; percent of control (FP), % (concentration not given with the values); 0.42% of 210,000 active; AID 1224905;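 active means replicate mean at 85% of control or lower, very high polarization wells dropped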;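 further: wells of about 15 µL received 100 nL stock; the first replicate is given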
Target sequence (P08753 whole entry, looked up): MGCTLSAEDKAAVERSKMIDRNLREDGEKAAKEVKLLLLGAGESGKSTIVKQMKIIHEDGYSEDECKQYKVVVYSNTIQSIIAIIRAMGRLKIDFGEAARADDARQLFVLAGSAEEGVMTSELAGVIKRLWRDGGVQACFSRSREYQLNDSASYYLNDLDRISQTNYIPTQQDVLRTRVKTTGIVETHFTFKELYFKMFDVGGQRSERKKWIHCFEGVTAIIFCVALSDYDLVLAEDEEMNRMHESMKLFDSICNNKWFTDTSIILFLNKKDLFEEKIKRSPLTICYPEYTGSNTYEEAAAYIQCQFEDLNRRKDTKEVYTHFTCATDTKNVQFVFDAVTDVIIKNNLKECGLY
Sa growth 42C: blocks Staphylococcus aureus growth. S. aureus RN4220 growth, OD600, 20 h, 42 °C; active compounds read low. 0.53% of 170,000 active. relative growth, % (test concentration not listed);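 active means growth at 42 °C up to 50% and 20 or more points under that at 30 °C, or under 10% at both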;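 further: 300 nL library stock went into each well; scaled to the means of positive and negative controls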
Sa growth 42C second temp: also measured in Sa growth 42C; calls as there; relative growth, %; measured here: growth at 30 °C;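 optical density after 20 h as mean of two plates; 100% = untreated growth and lower means inhibition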
* marks the source's active call; other numbers are inactive results; x = no result given; & = joins results of further samples.

no. | SMILES | HCMV UL50-53 inh | GIV Gai3 FP
1 | CCCCN(CCCC)C(=O)c1cc2c(=O)n3ccccc3nc2s1 | -65 | 102
2 | Cc1[nH][nH]c(=O)c1N=Nc1ccccc1 | -113 | 106
3 | Cc1ccc(CNc2nc(C)c3nc(-c4ccccc4)oc3n2)cc1 | -18 | 110
4 | Cc1ccc(-n2c(SCc3nc(-c4ccccc4C)no3)nnc2-c2ccncc2)cc1C | 0 | 104
5 | O=C(CSc1ncnc2sccc12)N1CCC(c2nc3ccccc3o2)CC1 | 10 | x
6 | Cc1ccc(C(=O)NCCc2csc3nc(-c4cccc(F)c4)nn23)cc1C | -10 | 103
7 | Cc1cc(C)cc(NC(=O)CCc2c(C)nc3nc(CNC(=O)c4cccc(F)c4)nn3c2C)c1 | -2 | 108
8 | OCc1cn(-c2ccccc2)nc1-c1cccs1 | -27 | x

no. | Sa growth 42C | Sa growth 42C second temp
1 | 101 | 86
2 | 93 | 78
3 | 95 | 90
4 | 108 | 92
5 | 100 | 94
6 | x | x
7 | 118 | 93
8 | 74 | 80

New compounds follow
no. | SMILES | HCMV UL50-53 inh | GIV Gai3 FP
9 | COC(=O)c1ccccc1NC(=O)CCCn1nc(C)c2sc3ccccc3c2c1=O | -20 | 104
10 | CCOc1ccc(CCNC(=O)c2cc3c(-c4cccc(OC)c4)nn(C)c3s2)cc1OCC | -24 | 103
11 | COC(=O)CN1C(=O)CSc2ncccc21 | x | 104
12 | Cc1cccc(CN2C(=O)c3ccccc3S(=O)(=O)c3ccc(C(=O)N(C)Cc4ccccc4)cc32)c1 | -26 | 103
13 | CC(C)(C)c1ccc(S(=O)(=O)Nc2ccc(O)c(Sc3nc4ccccc4s3)c2)cc1 | -31 | 100
14 | Brc1ccc2c3c(ccc2c1)OCN(c1ccccc1)C3 | x | 104
15 | Cc1cc(C)c(/C=C/c2onc(C)c2S(=O)(=O)N2CCCC(C(=O)N3CCN(C)CC3)C2)c(C)c1 (stereo unspecified) | -15 | 104
16 | CN1N=C(C(C)(C)C)CSC1=Nc1ccc(F)cc1 | 3 | 108

no. | Sa growth 42C | Sa growth 42C second temp
9 | 111 | 90
10 | 91 | 92
11 | 106 | 96
12 | 110 | 99
13 | 95 | 107
14 | 92 | 89
15 | x | x
16 | 100 | 99

Other structures
no. | SMILES | HCMV UL50-53 inh | GIV Gai3 FP
17 | COc1cc(Cn2c(=O)oc3ccc(C)cc32)ccc1OCCC(C)C | -15 | 101
18 | CCCS(=O)(=O)c1nc(S(=O)(=O)c2ccc(Cl)cc2)c(N2CCC(O)CC2)s1 | -4 | 105
19 | Cn1c(=O)cc(Cl)c2ccccc21 | -26 | 106
20 | COc1ccccc1C1CC(=O)NC(SCC(=O)Nc2ccc(Br)cc2)=C1C#N (stereo unspecified) | -11 | 99
21 | COc1ccc(S(=O)(=O)NCCc2csc(-c3cccc(F)c3)n2)cc1OC | x | 100
22 | COc1ccc2c(CNC3CCCCCC3)c(C(=O)O)n(Cc3ccc(C)cc3)c2c1 | x | 102
23 | Cc1cc(C)c2c(=O)cc(C(=O)Nc3cccnc3)oc2c1 | -22 | 101
24 | O=C(c1ccc(-c2noc(C3CCCC3)n2)cc1)N1CCCC1 | -31 | 106

no. | Sa growth 42C | Sa growth 42C second temp
17 | 98 | 89
18 | 90 | 77
19 | 84 | 76
20 | x | x
21 | 92 | 91
22 | 84 | 65
23 | x | x
24 | x | x

(more compounds)
no. | SMILES | HCMV UL50-53 inh | GIV Gai3 FP
25 | COc1ccc(/C=C\c2onc(C)c2S(=O)(=O)N2CCC(C(=O)Nc3cccc(Cl)c3)CC2)cc1 | -44&-8 | 104&105
26 | C=CCN(C(=O)c1ccc(Cl)cc1Cl)c1nnc(-c2ccncc2)s1 | 3 | 106
27 | O=C(O)CN1CC(=O)Nc2ccccc21 | -12 | 110
28 | CSc1nc(N)nc(SCC(=O)Nc2ccccc2)c1C#N | 1 | x
29 | Cc1ccc(OCc2nc(-c3ccc(C(=O)NCCc4ccc(S(N)(=O)=O)cc4)cc3)oc2C)cc1 | -5&-28 | 99&103
30 | CCOc1ccc(-c2nonc2NC(=O)c2oc3ccc(Cl)cc3c2C)cc1 | -6 | 100
31 | O=C(O)[C@@H]1CCCN1Cc1ccccc1 | -5 | x
32 | O=C(CSc1nccn1Cc1ccccc1)Nc1ccc2c(c1)OCO2 | x | 106

no. | Sa growth 42C | Sa growth 42C second temp
25 | 109 | 86
26 | 100 | 90
27 | 97 | 70
28 | 113 | 104
29 | 107 | 94
30 | 96 | 96
31 | 110 | 93
32 | 92 | 96

More records follow.
no. | SMILES | HCMV UL50-53 inh | GIV Gai3 FP
33 | COC(=O)COc1ccc(/C=C2\C(=O)NC(=S)N(c3ccc(F)cc3)C2=O)cc1OC | -30 | 103
34 | Cc1ccc2c(Cl)c(C(=O)N3CC(C)OC(C)C3)sc2c1 (stereo unspecified) | x | 106
35 | Cn1c(=O)c2cc(S(=O)(=O)NC(C(=O)NC3CCCCCC3)c3ccccc3)ccc2n(C)c1=O (stereo unspecified) | -4 | 108
36 | CCOC(=O)N1CCN(Cc2ccc(O)c(OC)c2)CC1 | -11 | 105
37 | COc1ccc(-c2nnc(C3CCN(S(=O)(=O)c4ccc(C)c(C)c4)CC3)o2)cc1 | -29 | 103
38 | COc1ccccc1CNC(=O)c1ccc(C)c(-n2cnc3cccnc32)c1 | x | 105
39 | COc1ccc(-n2cc(-c3ccccc3)nc2SCC(=O)Nc2ccccc2)cc1Cl | x | 105
40 | O=C(CSc1nc2sc3c(c2c(=O)[nH]1)CCCC3)NCc1ccccn1 | -1 | 108

no. | Sa growth 42C | Sa growth 42C second temp
33 | x | x
34 | 116 | 95
35 | 97 | 100
36 | 96 | 96
37 | 111 | 93
38 | 147 | 95
39 | 103 | 93
40 | x | x

Next section.
no. | SMILES | HCMV UL50-53 inh | GIV Gai3 FP
41 | Cc1cc(C(F)(F)F)nc2sc(C(=O)Nc3ccc(C(N)=O)cc3)c(N)c12 | -44 | x
42 | COc1ccc2oc(CS(=O)c3ccccc3)c(C(=O)O)c2c1 (stereo unspecified) | x | 104
43 | O=C(CN(c1ccc(Cl)c(Cl)c1)S(=O)(=O)c1ccccc1)N1CCN(c2ccccc2)CC1 | -9 | 102
44 | CC(C)(C)C(=O)/C=C/Nc1ccc(C(=O)O)cc1 | -33 | 103
45 | CSc1nc(N)nc(-c2csc(C)n2)n1 | -1 | 100
46 | CCOc1ccc2nc(N3CCCC(C(=O)Nc4ccc(Br)c(C)c4)C3)sc2c1 (stereo unspecified) | -35 | 102
47 | CCCOC(=O)C1=C(C)NC2=C(C(=O)CC(c3ccc(OC)c(OC)c3)C2)C1c1cccc(OC)c1OC (stereo unspecified) | -24 | 100
48 | O=C(/C=C/c1cc(Cl)c2c(c1)OCCCO2)Nc1ccc(-n2cnnn2)cc1 | -32 | x

no. | Sa growth 42C | Sa growth 42C second temp
41 | 105 | 84
42 | 131 | 90
43 | x | x
44 | 112 | 97
45 | 133 | 92
46 | 136 | 94
47 | x | x
48 | 80 | 80

Only Sa growth 42C second temp and GIV Gai3 FP, for two of the compounds above:
cpd | SMILES | Sa growth 42C second temp | GIV Gai3 FP
43 | O=C(CN(c1ccc(Cl)c(Cl)c1)S(=O)(=O)c1ccccc1)N1CCN(c2ccccc2)CC1 | x | 102
44 | CC(C)(C)C(=O)/C=C/Nc1ccc(C(=O)O)cc1 | 97 | 103

Next records:
no. | SMILES | HCMV UL50-53 inh | GIV Gai3 FP
49 | COc1ccc(C2CC(c3ccccc3)=NN2S(=O)(=O)c2ccc(C)cc2)c(OC)c1 (stereo unspecified) | 2 | 111
50 | CSc1ccccc1C(=O)NC1CC(C)(C)NC(C)(C)C1 | -14 | 99
51 | CN(C)C(=O)c1cnc(-c2ccccc2)nc1-c1ccccc1 | 7 | 99
52 | Cc1ccc(N(CC(=O)NCCSc2ccccc2)S(=O)(=O)c2ccc(F)cc2)cc1 | -1 | 107
53 | CSC1=NCCCN1S(=O)(=O)c1ccc(Cl)cc1 | -16 | 101
54 | CCCNC(=O)c1cc(S(=O)(=O)N2CCCCC2)c[nH]1 | -15 | 104
55 | O=c1cc(-c2cc3ccccc3o2)oc2ccccc12 | -15 | 110
56 | CCCCNC(=O)Cn1c(-c2ccc(C)cc2)noc1=O | -2 | 102

no. | Sa growth 42C | Sa growth 42C second temp
49 | x | x
50 | 93 | 102
51 | x | x
52 | 100 | 99
53 | 97 | 88
54 | 87 | 89
55 | 96 | 71
56 | 94 | 83

Later entries.
no. | SMILES | HCMV UL50-53 inh | GIV Gai3 FP
57 | COc1ccc(-n2c(C)nc3cc(C(=O)O)ccc32)cc1 | -28 | 96
58 | COc1ccc(/C(O)=C(/C#N)c2nc3ccccc3c(=O)[nH]2)cc1 | -11 | 101
59 | Cc1cc(C)cc(NC(=O)CCCn2c(=O)c3cccn3c3cccnc32)c1 | x | 98
60 | O=C(O)c1ccc2nsnc2c1 | -76 | x
61 | CCOc1cc(CCC(=O)O)on1 | -10 | 101
62 | Cc1cc2n(n1)CCC(=O)N2CC(=O)NC(C)C | 2 | 109
63 | COc1ccc(-c2nc3c(s2)CN(C(=O)c2ccccc2F)CC3)cc1 | -16 | 96
64 | COc1ccc(C(=O)N2CCC(C(=O)Nc3ccc(OC)cc3OC)CC2)cc1 | -20 | 104

no. | Sa growth 42C | Sa growth 42C second temp
57 | 98 | 91
58 | 69 | 30
59 | 111 | 93
60 | 87 | 86
61 | 97 | 79
62 | x | x
63 | x | x
64 | 100 | 90

Among those listed so far, 3 have a furan ring, fused or not.
no. | SMILES | HCMV UL50-53 inh | GIV Gai3 FP
30 | CCOc1ccc(-c2nonc2NC(=O)c2oc3ccc(Cl)cc3c2C)cc1 | -6 | 100
42 | COc1ccc2oc(CS(=O)c3ccccc3)c(C(=O)O)c2c1 (stereo unspecified) | x | 104
55 | O=c1cc(-c2cc3ccccc3o2)oc2ccccc12 | -15 | 110

no. | Sa growth 42C | Sa growth 42C second temp
30 | 96 | 96
42 | 131 | 90
55 | 96 | 71

The list continues.
no. | SMILES | HCMV UL50-53 inh | GIV Gai3 FP
65 | O=C(NCc1ccncc1)C1c2ccccc2Oc2ccccc21 | x | 104
66 | CCCn1c2ccccc2c2cnn(CC(=O)NCCc3ccc(OC)cc3OC)c(=O)c21 | x | 102
67 | O=C(Oc1ccccc1)c1ccc(-n2cnnn2)cc1 | -6 | 97
68 | COc1ccccc1OCC(=O)NCCCn1ccnc1 | -15 | x
69 | C=CCN(C(=O)C(C)Sc1ncc(C(=O)OCC)c(N)n1)c1ccccc1 (stereo unspecified) | -7 | 106
70 | CCc1ccc(NC(=O)c2oc3c(c2C)-c2[nH]ncc2CC3)cc1 | -26 | 101
71 | COCCn1c(C)cc(C(=O)COC(=O)c2cc3c(s2)CCCCC3)c1C | -25 | x
72 | CCCCSc1nnc2c(n1)OC(c1ccc(C)s1)Nc1ccccc1-2 (stereo unspecified) | -27 | 112

no. | Sa growth 42C | Sa growth 42C second temp
65 | 92 | 81
66 | 128 | 82
67 | 110 | 89
68 | 85 | 87
69 | x | x
70 | 108 | 76
71 | 84 | 90
72 | 101 | 94

The list continues.
no. | SMILES | HCMV UL50-53 inh | GIV Gai3 FP
73 | CCOC(=O)c1nc(N2CCN(c3ccc(F)cc3)CC2)c2c(C)noc2n1 | x | 101
74 | CC1CCC(C(C)C)C(OC(=O)NC(=O)C(F)(F)F)C1 (stereo unspecified) | x | 92
75 | C=C1c2cc(C)cc(C)c2NC(=O)N1CC | -6 | x
76 | CC(Oc1ccc2c3c(c(=O)oc2c1)CCC3)C(=O)OC1CCCCC1 (stereo unspecified) | -21 | 109
77 | O=C(NC(OCc1ccccc1)C(=O)c1ccccc1)c1ccccc1 (stereo unspecified) | -11 | x
78 | Cc1nc(SCC(=O)Nc2cc(C)on2)n[nH]1 | -22 | 103
79 | Nc1cc(=O)[nH]c(=S)n1-c1ccc(Cl)cc1 | -9 | 104
80 | CCn1c(=O)c(N2CCCC(C(=O)NCCc3c[nH]c4ccc(OC)cc34)C2)nc2ccccc21 (stereo unspecified) | -31 | 107

no. | Sa growth 42C | Sa growth 42C second temp
73 | 82 | 75
74 | 104 | 93
75 | 105 | 85
76 | 97 | 84
77 | 95 | 91
78 | x | x
79 | 108 | 101
80 | x | x

Other compounds follow:
no. | SMILES | HCMV UL50-53 inh | GIV Gai3 FP
81 | N#CC1=C(SCC(=O)Nc2ccc(Br)cc2)NC(=O)CC1c1cccc(Cl)c1 (stereo unspecified) | -25 | 101
82 | CC1=Nn2c(nc3sc(-c4ccccc4)cc3c2=O)SC1 | -47 | 103
83 | CCC(C(=O)Nc1ccccc1F)n1nc(C)c2c(C)n(-c3ccccc3)nc2c1=O (stereo unspecified) | -10 | 101
84 | Cc1cc(NC(=O)c2ccc(Br)o2)nc2c1c(=O)oc1ccccc12 | -18 | 120
85 | Cc1[nH]c(=O)[nH]c(=O)c1S(=O)(=O)N1CCN(c2ccccc2)CC1 | x | 101
86 | COc1ccc(NC(=O)C(CC(C)C)NC(=O)C2CCCCC2)cc1 (stereo unspecified) | -4 | 107
87 | CC(C)N(c1ccccc1)c1ccc(NC(=O)C2CCC2)cc1 | -1 | x
88 | COc1ccc(C(=O)NCCc2cc3c(OC)ccc(OC)c3[nH]c2=O)cc1 | -34 | 100
89 | O=S(=O)(NCCc1ccccc1)c1ccc(S(=O)(=O)N2CCCCC2)cc1 | -4 | 102
90 | COc1ccc(CNC(=O)Cn2ncc3c(=O)oc4ccccc4c32)c(OC)c1 | 4 | 104

no. | Sa growth 42C | Sa growth 42C second temp
81 | x | x
82 | 103 | 94
83 | x | x
84 | 91 | 67
85 | 66 | 84
86 | 88 | 88
87 | 90 | 100
88 | 73 | 55
89 | 122 | 116
90 | 112 | 102
